# Screens (PubChem)
# TRPML1 ag: qHTS for Agonists of the Human Mucolipin Transient Receptor Potential 1 (TRPML1); Mucolipin-1 (Homo sapiens), Q9GZU1; TRPML1-expressing cells, Ca2+ dye fluorescence, FDSS; host cell line not named in the record; reference of the full effect not given here; activation, % (no concentration beside the values); 410,000 compounds, 0.12% hits; in the data active = activation above about 50%; inconclusive = about 30% to 50%; inactive = below about 30%; further: 0% is about no effect; the text of the record puts the active cut at 80%
# Target sequence (Q9GZU1 whole entry, looked up): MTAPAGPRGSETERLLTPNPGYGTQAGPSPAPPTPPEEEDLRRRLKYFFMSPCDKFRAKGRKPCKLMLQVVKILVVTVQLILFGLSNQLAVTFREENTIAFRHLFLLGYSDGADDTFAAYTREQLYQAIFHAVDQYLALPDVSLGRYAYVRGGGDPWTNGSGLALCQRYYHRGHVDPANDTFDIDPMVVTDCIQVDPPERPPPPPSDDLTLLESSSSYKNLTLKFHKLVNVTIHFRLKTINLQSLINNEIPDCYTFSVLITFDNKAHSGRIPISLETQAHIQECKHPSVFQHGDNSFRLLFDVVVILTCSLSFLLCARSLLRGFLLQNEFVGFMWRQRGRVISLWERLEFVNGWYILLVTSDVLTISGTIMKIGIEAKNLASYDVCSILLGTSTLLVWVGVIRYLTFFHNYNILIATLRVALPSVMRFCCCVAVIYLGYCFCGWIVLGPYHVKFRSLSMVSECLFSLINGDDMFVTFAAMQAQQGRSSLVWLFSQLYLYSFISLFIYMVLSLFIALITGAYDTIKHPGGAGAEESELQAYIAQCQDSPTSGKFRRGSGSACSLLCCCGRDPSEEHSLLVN
#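 Agonist activity was taken from a 110 s kinetic Ca2+ dye read on the FDSS after pinning compounds onto TRPML1-DL cells. The cells were seeded at 1,500/well with Tet inducer, incubated about 16 h, then dye-loaded at room temperature.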
# D2 agonist: Beta-Arrestin HTS for Positive Allosteric Modulators of the Human D2 Dopamine Receptor: Agonists. DiscoveRx PathHunter D2 beta-arrestin, luminescence, 90 min; 100% = 57 uM dopamine signal. 360,000 compounds, 0.084% hits. activation, % (test concentration not listed); in the data active = activation above about 40%; inconclusive = about 15% to 40%; inactive = below about 15%; further: compound concentration not given in the record; the text of the record calls up to 30% inactive
# Target sequence (P14416 whole entry, looked up): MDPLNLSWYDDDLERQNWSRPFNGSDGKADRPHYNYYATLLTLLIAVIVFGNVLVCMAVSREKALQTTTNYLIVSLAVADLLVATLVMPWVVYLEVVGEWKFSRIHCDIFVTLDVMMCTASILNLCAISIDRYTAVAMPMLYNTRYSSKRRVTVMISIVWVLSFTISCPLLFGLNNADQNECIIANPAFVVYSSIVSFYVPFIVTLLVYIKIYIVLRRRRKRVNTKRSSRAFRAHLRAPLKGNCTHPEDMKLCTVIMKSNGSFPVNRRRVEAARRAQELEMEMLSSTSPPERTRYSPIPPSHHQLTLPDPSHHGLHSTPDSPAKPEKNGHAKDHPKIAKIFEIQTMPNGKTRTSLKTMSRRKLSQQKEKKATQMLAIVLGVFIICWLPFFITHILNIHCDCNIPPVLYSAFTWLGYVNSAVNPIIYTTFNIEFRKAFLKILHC
#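 DiscoveRx PathHunter D2 beta-arrestin cells (2,100/well) attached overnight, then compound-stimulated 90 min at 37 C in HBSS/10 mM HEPES/0.1% Tween-20 buffer; beta-galactosidase complementation read by luminescence after 1 h at ambient temperature. Dopamine 57 uM final (EC100) as control.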
# TRPML1 blocker: qHTS for Inhibitors of the Human Mucolipin Transient Receptor Potential 1 (TRPML1); Mucolipin-1 (Homo sapiens), Q9GZU1; TRPML1-inducible cells, Ca2+ dye fluorescence, FDSS; stronger effect = lower value; inhibition of EC80 agonist-evoked calcium signal; activity change, negative = inhibition, % (test concentration not listed); 390,000 compounds, 0.02% hits; AID 624415, 2012; in the data active means activity change below about -50%; inconclusive means about -30% to -50%; inactive means above about -30%;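 further: stimulus is agonist 54-4 at its EC80 concentration; on the % scale 0 is the no-effect control and ±100 the full control effect; compound concentration not given in the record; the text of the record puts the active cut at -80%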
#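 TRPML1-DL cells, Tet-induced overnight (~16 h, 37 °C) at 1,500 cells/well, were loaded with Ca8 no-wash dye plus quencher for 45-90 min at room temperature. Compounds were pinned during FDSS kinetic reading; agonist 54-4 at EC80 (4 uM final) then added.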
# PINK1 expr mod: A Quantitative High throughput Screen to Identify Chemical Modulators of PINK1 Expression | PINK1 immunofluorescence, high-content cytometry, 24 h | Potency, µM (highest dose often 76.6 µM), for inactives: at the highest dose activation (PINK1 increase), actives largely listed as activators | 410,000 compounds, 0.2% hits; active = well fitted activation curve with a large enough effect; inconclusive = small, poorly fitted or top-dose-only effect; inactive = flat fitted curve, though single readings scatter; cell line not stated here;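 further: potency means the concentration at half of the fitted maximal effect; % of control where 0% means no effect; nearly all actives have a fitted effect of over 65% in size; a mitochondrial uncoupler was the plate control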
#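 Fluorescence from anti-PINK1 antibody, together with nuclear and cell stains, was scanned on a laser-scanning cytometer. Before staining, stable-line cells were incubated 24 hours with compounds at 5 concentrations; primary antibody 12 h at 10 degrees C.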
# Six1-Eya2 blk: qHTS Assay for Inhibitors of the Six1/Eya2 Interaction; 360,000 compounds, 0.56% hits; activity change, % (concentration not given with the values); AID 651725, 2012; AlphaScreen GST-Six1/His-Eya2 binding, biochemical; stronger effect = lower value; control for the full effect not named in the record; Homeobox protein SIX1 (Homo sapiens) + Protein phosphatase EYA2 (Homo sapiens), …; in the data active = activity change below about -65%; inconclusive = about -30% to -65%; inactive = above about -30%; further: on the % scale 0 is the no-effect control and ±100 the full control effect
#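 Compounds are tested against tagged Six1 and Eya2 proteins bridged by glutathione donor and nickel acceptor beads; after a one-hour incubation at 37 °C without light, AlphaScreen emission is recorded.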
# D2 PAM: Beta-Arrestin HTS for Positive Allosteric Modulators of the Human D2 Dopamine Receptor: Potentiators; potentiation, % (concentration not given with the values); D(2) dopamine receptor (Homo sapiens), P14416; DiscoveRx D2 beta-arrestin cells, luminescence, 90 min; 100% = 57 uM dopamine signal; 360,000 compounds, 0.23% hits; AID 624464, 2012; active = potentiation of 50% or more; inconclusive = 30% to 50%; inactive = 30% or less;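 further: tested on top of an EC20 dose of dopamine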
#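 D2 cells co-treated with compound plus 50 nM dopamine (EC20) for 90 min at 37 deg C to detect potentiation. Beta-arrestin recruitment was read as enzyme-fragment luminescence after 1 h at ambient temperature. Full response was set by 57 uM dopamine.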
# Active calls of the source: *; ? = inconclusive; . = no result given; [ ] = remark or other dose.
SMILES,TRPML1 ag,D2 agonist,TRPML1 blocker,PINK1 expr mod,Six1-Eya2 blk,D2 PAM
OC(CNCCCCNCC(O)C(F)(F)F)C(F)(F)F (stereo unspecified),0.1,2.9,5,3.8%,-2,-3
COCCn1c(-c2ccc(C)cc2)nc2c(c(=O)c3ccccc3n2C)c1=O,0.4,2.6,-3,3.7%,19,-8
Cc1cc(C)nc(SCC(=O)Nc2ccc(S(=O)(=O)Nc3cc(C)on3)cc2)n1,0.0,-4.7,4,-0.3%,-1,-5
Cc1ccc2c(c1)C(c1ccc(N3CCOCC3)cc1)=NNC(c1cccs1)=N2,-1.0,1.2,-7,-7.4%[38.3 µM],-2,-4
COc1cc2c(cc1NC(=O)C(Cl)Cl)-c1ccc(NC(=O)C(Cl)Cl)cc1C2,0.8,-1.5,-1,-5.5%,-9,-8
C(=C\c1ccccn1)/c1ccccn1,-0.1,-2.0,18,0.8%,-11,-8
O=C(Nc1nnc(C2CC2)s1)c1cccc(S(=O)(=O)N2CCc3ccccc32)c1,1.6,-2.6,-13,0.0%,5,4
CC(C)Oc1cccc(C(=O)NC(=S)Nc2ccc3c4c(cccc24)CC3)c1,0.0,2.8,5,5.4%,-21,4
COc1cccc(CN2CCC2(C)C(=O)Nc2cccc3cccnc23)c1OC (stereo unspecified),0.3,1.7,.,7.1%,-9,-1
CCCC12CN3CC(C)(CN(C1)C3c1cn(C)c3ccccc13)C2=O (stereo unspecified),1.1,.,36,1.6%,.,.
Cc1cccc(OCCN2C(=O)c3ccccc3C2=O)c1,5.2,2.0,17,1.2%,11,-9
NC(=O)C1(N2CCCCC2)CCN(Cc2ccccc2Cl)CC1,7.4,-1.6,25,.,-10,-31
O=C(O)c1cc(S(=O)(=O)N2CCCCC2)sc1Cl,0.7,-7.4,11,-0.8%,2,-9
OC(CN1C2=NCCCN2c2ccccc21)c1ccc(Cl)cc1 (stereo unspecified),0.3,-6.7,15,-0.1%,11,-1
COc1ccc(OC)c(S(=O)(=O)NC2CCN(Cc3ccccc3)CC2)c1,0.1,-2.7,-10,0.4%[38.3 µM],4,-15
CC(=O)Nc1ccc(C(=O)OCc2ccc(Cl)c(Cl)c2)cc1,-0.4,1.4,-13,2.3%,-4,1
C[C@H](CO)N1C[C@H](C)[C@H](CN(C)C(=O)c2ccccn2)Oc2cc(C#Cc3ccc(F)cc3)ccc2S1(=O)=O,.,-0.5,.,0.5%,-8,.
O=c1cc(C(O)C[N+](=O)[O-])occ1OCc1ccccc1 (stereo unspecified),0.9,2.2,-13,-2.2%,-5,1
CCN(CC)C(=O)C1CCCN(C(=O)c2cc(COc3cccc(OC)c3)on2)C1 (stereo unspecified),0.7,-1.2,6,0.7%,1,4
CCc1nnc(NC(=O)CSc2nnc3c(C)cc4c(C)ccc(C)c4n23)s1,1.7,-2.8,3,5.1%,-3,-15
C/C(=N\NC(=O)c1ccccc1F)c1cccc(NC(=O)c2ccc(C)cc2)c1,1.7,-5.5,6,6.6%,-24,-21
CC1CCCC(NC(=O)COC(=O)c2ccc(N(C)C)cc2)C1C (stereo unspecified),-0.1,2.2,-7,.,-6,3
O=C(O)CC(Cc1ccc(Cl)cc1)C(=O)Nc1cc(Cl)ccc1Cl (stereo unspecified),0.6,0.0,-11,0.2%,7,-1
COc1cccc(C(=O)Nc2ccccc2C(=O)OCc2cc(=O)n3c(C)csc3n2)c1,1.4,.,6,-0.4%,.,.
CN(C)c1ccc(CNC(=O)c2cccn2-c2nnc(N3CCCCC3)s2)cc1,-1.2,.,1,-0.2%,.,.
# (listing goes on)
SMILES,TRPML1 ag,D2 agonist,TRPML1 blocker,PINK1 expr mod,Six1-Eya2 blk,D2 PAM
N#Cc1ccc(CN2CCN(C(=O)C3CC(=O)N(c4ccc5c(c4)OCCO5)C3)CC2)cc1 (stereo unspecified),-0.7,-1.2,1,-0.8%,-6,-7
Cc1ccc(Cc2cnc(NC(=O)C3Cc4ccc(C)cc4C(=O)O3)s2)cc1 (stereo unspecified),1.1,.,-4,0.2%,.,.
Cc1cc2cc(CNC(=O)c3ccc(S(=O)(=O)N(C)C)cc3)ccc2n1C,1.8,0.3,-2,1.8%,-17,-4
O=C(COc1cccc(NC(=O)c2ccco2)c1)c1ccc(F)cc1,2.0,-2.1,17,0.1%,-9,-13
O=C(O)C1C(c2ccccc2)C(C(=O)Oc2ccccc2)C1c1ccccc1 (stereo unspecified),-1.0,-1.4,9,-1.5%,4,-9
C[C@H](NC(=O)c1ccccc1)C(=O)OCC(=O)Nc1sccc1C(N)=O,0.2,0.4,-3,0.3%,-4,-4
O=C(NNc1ccccc1[N+](=O)[O-])Nc1ccc(F)cc1,-0.8,2.7,-6,0.2%,0,2
CCOc1ccc(N(C(=O)CNC(=O)c2cccs2)C(C(=O)NCC2CCCO2)c2ccc(OC)c(OC)c2)cc1 (stereo unspecified),0.0,2.3,14,-2.1%,-1,-8
COC(=O)c1nc(NC(=O)c2ccccc2)n[nH]1,-0.6,-2.7,-4,2.1%,0,-11
O=C(Nc1ccc(F)cc1F)c1cccc2c1C(=O)N(C1CCCCC1)C2,-0.6,.,-13,5.2%,.,.
CCc1ccc2oc(-c3ccc(C)c(NC(=O)c4cc([N+](=O)[O-])ccc4N4CCOCC4)c3)nc2c1,-0.4,.,1,2.9%,.,.
Cc1cccc(CC2S/C(=N/c3ccccn3)NC2=O)c1 (stereo unspecified),1.4,-2.7,37,9.4%,-7,-8
Cc1ccc(NC(=O)C2COc3ccccc3O2)cc1S(=O)(=O)N1CCCCC1 (stereo unspecified),-0.1,13,19,2.4%,-12,2
CC1CCCCC1NC(=O)/C(C#N)=C/C=C/c1ccccc1[N+](=O)[O-] (stereo unspecified),-0.7,2.5,-2,6.2%,-11,4
COc1ccc(C)cc1-n1cnc2cc(C(=O)NC3CCCC3)ccc21,1.6,.,9,1.3%,.,.
CC(=O)c1cccc(OCC(O)CNCC2CCCCC2)c1 (stereo unspecified),-0.8,2.1,10,1.9%,10,-13
CCCCN(C)CCCNC(=O)c1ccc(N2CCCC2=O)cc1,-0.1,-4.6,-5,0.3%,-2,-20
CC(=O)N1CCN(C(=O)COC(=O)c2oc3ccccc3c2C)CC1,-0.5,-0.4,8,0.1%,3,-1
O=C1CSC(c2ccccc2Cl)N1 (stereo unspecified),0.0,-4.0,4,0.7%,9,-7
O=S(=O)(/N=C(/NNS(=O)(=O)c1ccccc1)c1ccccc1)c1ccccc1,1.3,3.5,21,-1.1%,4,-12
COc1ccccc1NC(=O)CN1CCN(C(=O)C2CCCO2)CC1 (stereo unspecified),0.6,-3.1,-15,?,1,28
Cc1cc(OCC(=O)N(Cc2ccccc2)C2CCS(=O)(=O)C2)ccc1Cl (stereo unspecified),-0.3,-3.3,2,-0.4%,0,22
O=C(CN1C(=O)c2ccccc2S1(=O)=O)NCc1ccc2c(c1)OCO2,-0.5,-3.5,-4,-1.2%[38.3 µM],-2,-3
O=C(NCCc1c[nH]c2ccccc12)Nc1ccccc1C(F)(F)F,1.6,.,6,1.2%,.,.
O=C(CN1CCCC1)N1CCCC(c2ccc(F)cc2)c2ccc(F)cc21 (stereo unspecified),-0.4,-2.9,10,-0.7%,-5,-7
# Going on with the list:
SMILES,TRPML1 ag,D2 agonist,TRPML1 blocker,PINK1 expr mod,Six1-Eya2 blk,D2 PAM
CCCN(CC(=O)NC(=O)NC1CCCCC1)CC(=O)Nc1cc(Cl)ccc1Cl,2.5,0.5,-19,25%,-6,-27
COc1ccc(NC(=O)C2=C(C)Nc3nc(SC)nn3C2c2cc(OC)ccc2OC)cc1 (stereo unspecified),-0.8,.,14,0.0%,.,.
Fc1ccc2cc(-c3ccsc3)ncc2c1,0.8,-5.5,17,4.8%,15,-6
Cc1ccc(S(=O)(=O)N2CCOCC2)cc1C(=O)OCC(=O)NC1CCCC(C)C1C (stereo unspecified),0.1,-1.2,-6,-0.3%,2,0
Cc1cc(C)c(NC(=O)COC(=O)C2=COCCO2)c(Cl)c1,0.6,-2.1,-6,1.3%,5,1
CN(CCC(=O)Nc1cc(S(=O)(=O)N(C)C)ccc1Cl)CC(=O)Nc1ccc(F)cc1,0.0,-3.4,-5,1.0%,-17,-15
Cc1ccc(S(=O)(=O)N2CCN(C(=O)CSc3ccc(Cl)cc3)CC2)cc1,1.7,-1.4,-17,-2.1%,-4,-5
Cn1c(=O)n(C)c2cc(CNCc3ccccc3Cl)ccc21,-0.5,.,9,1.1%,.,.
CC(C)OC(=O)c1ccc(COC(=O)c2cccc(-c3nnc(-c4ccccc4)o3)c2)cc1,0.6,-3.6,7,5.5%,7,-2
CCOC(=O)c1sc2ncn(/N=C/c3ccc(O)c(OC)c3)c(=O)c2c1C,4.2,-0.4,18,5.4%,-7,-22
Cc1ccc(N(CC(=O)NCc2ccc(F)cc2)S(=O)(=O)c2cccs2)cc1,1.0,3.2,19,-0.3%[38.3 µM],2,1
Cc1ccc(-c2nnn(Cc3nc(N)nc(N4CCOCC4)n3)n2)cc1,0.4,0.5,-14,.,3,1

# Structures above containing an aryl methoxy group (ten):
SMILES,TRPML1 ag,D2 agonist,TRPML1 blocker,PINK1 expr mod,Six1-Eya2 blk,D2 PAM
COc1cc2c(cc1NC(=O)C(Cl)Cl)-c1ccc(NC(=O)C(Cl)Cl)cc1C2,0.8,-1.5,-1,-5.5%,-9,-8
COc1cccc(CN2CCC2(C)C(=O)Nc2cccc3cccnc23)c1OC (stereo unspecified),0.3,1.7,.,7.1%,-9,-1
COc1ccc(OC)c(S(=O)(=O)NC2CCN(Cc3ccccc3)CC2)c1,0.1,-2.7,-10,0.4%[38.3 µM],4,-15
CCN(CC)C(=O)C1CCCN(C(=O)c2cc(COc3cccc(OC)c3)on2)C1 (stereo unspecified),0.7,-1.2,6,0.7%,1,4
COc1cccc(C(=O)Nc2ccccc2C(=O)OCc2cc(=O)n3c(C)csc3n2)c1,1.4,.,6,-0.4%,.,.
CCOc1ccc(N(C(=O)CNC(=O)c2cccs2)C(C(=O)NCC2CCCO2)c2ccc(OC)c(OC)c2)cc1 (stereo unspecified),0.0,2.3,14,-2.1%,-1,-8
COc1ccc(C)cc1-n1cnc2cc(C(=O)NC3CCCC3)ccc21,1.6,.,9,1.3%,.,.
COc1ccccc1NC(=O)CN1CCN(C(=O)C2CCCO2)CC1 (stereo unspecified),0.6,-3.1,-15,?,1,28
COc1ccc(NC(=O)C2=C(C)Nc3nc(SC)nn3C2c2cc(OC)ccc2OC)cc1 (stereo unspecified),-0.8,.,14,0.0%,.,.
CCOC(=O)c1sc2ncn(/N=C/c3ccc(O)c(OC)c3)c(=O)c2c1C,4.2,-0.4,18,5.4%,-7,-22

# Rows are unselected (roughly 1% active in at least one column).
